Mtb growth: M. tuberculosis H37Rv growth inhibitors, H37Rv strain (AID 1626); M. tuberculosis H37Rv growth inhibition; higher % means a stronger effect; one-dose inhibition, % at 10 µM; IC50 in µM for titrated hits; hit rate 0.95% among 220,000;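 active = confirmed in a dose series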;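 note: bacteria incubated seven days before Alamar blue readout; 0% = bacteria only wells and 100% = bacteria with antibiotic wells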
Arbovirus inh: antivirals against arbovirus infection, primary screen, cell-based, full library, 10K replicate subset. hit rate 0.37% among 200,000. inhibition, % at 10 µM. arbovirus infection cell-based antiviral screen;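 active = inhibition from about 30%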;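 note: bluetongue infection of BSR cells; cell survival read as ATP light after 72 h; 0% = infected wells without compound and 100% = uninfected wells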
RecA intein inh: Mtb RecA intein splicing inhibitors, primary screen, biochemical, fluorescence, HTS; inhibition, %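 (about 9 µM by stock and volumes)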; cell-free RecA intein splicing; hit rate 0.75% among 290,000; Protein RecA (Mycobacterium tuberculosis (strain ATCC 25618 / H37Rv)), P9WHJ3; in the data active = inhibition above about 30%;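 note: 0% = vehicle wells and 100% = reference inhibitor control wells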
Target sequence (P9WHJ3 whole entry, looked up): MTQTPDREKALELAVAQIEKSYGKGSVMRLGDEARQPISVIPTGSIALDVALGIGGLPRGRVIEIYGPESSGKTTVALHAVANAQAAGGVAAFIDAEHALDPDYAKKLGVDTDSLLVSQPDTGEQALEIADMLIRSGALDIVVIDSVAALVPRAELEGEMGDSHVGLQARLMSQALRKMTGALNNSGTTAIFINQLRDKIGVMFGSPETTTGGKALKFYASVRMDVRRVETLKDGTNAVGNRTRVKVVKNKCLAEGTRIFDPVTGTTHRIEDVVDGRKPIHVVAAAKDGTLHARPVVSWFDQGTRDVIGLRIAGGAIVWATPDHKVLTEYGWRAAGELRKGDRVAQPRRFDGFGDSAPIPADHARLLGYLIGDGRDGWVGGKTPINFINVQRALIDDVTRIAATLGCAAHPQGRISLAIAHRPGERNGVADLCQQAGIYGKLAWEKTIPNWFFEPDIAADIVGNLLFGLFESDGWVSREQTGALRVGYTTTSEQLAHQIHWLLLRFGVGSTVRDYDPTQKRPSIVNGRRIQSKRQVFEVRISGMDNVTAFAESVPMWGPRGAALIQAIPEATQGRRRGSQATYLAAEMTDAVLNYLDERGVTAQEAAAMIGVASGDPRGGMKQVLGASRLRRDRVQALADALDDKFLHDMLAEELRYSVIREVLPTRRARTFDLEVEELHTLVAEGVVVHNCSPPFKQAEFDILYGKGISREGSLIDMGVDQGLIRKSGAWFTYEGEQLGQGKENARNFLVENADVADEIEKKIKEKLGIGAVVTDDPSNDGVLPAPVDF
YopH inh: YopH tyrosine phosphatase inhibitors, primary screen, biochemical, fluorescence Ex485/Em525 | YopH tyrosine phosphatase [Yersinia enterocolitica] | hit rate 0.16% among 140,000 | inhibition, %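 (about 10 µM by stock and volumes)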;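 active = inhibition of 50% or more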;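 note: controls were vehicle for no effect and minimum signal wells for full effect; inactives centre near -20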
Mtb bLac sens: beta-lactam sensitization of Mtb H37Rv, H37Rv; M. tuberculosis H37Rv growth with meropenem, percent inhibition; hits of this screen are not shown here; inhibition, % at 25 µM; hit rate 0.27% among 330,000;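 active = about 74% or more and at least 40 points above the plate without the antibiotic, then above 30% in a dose series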;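 note: growth measured after seven days incubation then overnight dye step; 0% = bacteria only wells and 100% = bacteria with antibiotic; twin plates without the antibiotic show which effects depend on it; some results filed as inactive read as strong as hits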
Arbovirus inh repeat: second read-out of Arbovirus inh, no call of its own (marks repeat the call); inhibition, %; measured here: 10K subset replicate screen; many hits read low in the repeat;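 first of two repeat runs on a subset; 0% = infected and 100% = uninfected wells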
Starred values were filed as active, the others as inactive; x = no result given. Some of the compounds tested, so the mix of outcomes need not match the whole.

SMILES	Mtb growth	Arbovirus inh	RecA intein inh	YopH inh	Mtb bLac sens	others
CC(C(=O)NCC1CCCCC1)N(C)Cc1cccc(Cl)c1 (stereo not given)	7%	1	7.6	x	5
CSc1ccc(S(=O)(=O)NCCSC(C)(C)C)cc1	3%	7	1.0	-17	-14
C=CCOn1c(=O)c(-c2cc3ccccc3o2)[n+]([O-])c2ccccc21	3%	-6	-41	-25	6
C[C@@H](NC(=O)[C@@H]1Cc2ccccc2CN1)C(=O)NCc1ccco1	x	x	-3.0	x	-2
CN(C)/C(=N\S(=O)(=O)c1ccc(Cl)cc1)c1ccc(F)cc1	x	x	-3.1	x	-6
Cc1cccc(Nc2cc(=O)[nH]c(=O)[nH]2)c1C	-4%	-1	-0.6	13	-8
CC(=O)Cc1nnn(-c2cc(C)on2)n1	0%	x	-0.3	x	-4
Nc1c(NCCC2=CCCCC2)c(=O)[nH]c(=O)n1Cc1ccccc1	x	0	-7.6	-13	4
CC(C)(C)c1nc2scc(-c3cccs3)c2c(=O)o1	9%	15	7.2	-17	x
COc1ccccc1OCC(=O)N1CCN(C(=O)c2ccco2)CC1	x	x	-1.0	x	-9
Cc1ccccc1C(=O)NNC1=NCCC1	-4%	13	x	5	-7
Cc1ccc(C(=O)N/C(=C\c2ccccc2F)c2nc(=S)[nH][nH]2)cc1	23%	8	0.5	x	18
Nc1ccc(N=Nc2ccccc2)c2cccnc12	x	x	3.6	x	97
CC1(C)CC(=O)C2=C(C1)Nc1ccccc1NC2c1ccccc1F (stereo not given)	x	x	-0.3	x	2
S=C(NCc1ccc2c(c1)OCO2)NC1CC1	0%	-4	-2.8	x	6
O=C(CN1C(=O)C2C3C=CC(C3)C2C1=O)NCCc1ccccc1 (stereo not given)	-2%	10	-0.7	-34	0
Cc1ccc(S(=O)(=O)Nc2ccccc2C(=O)Nc2ccc(S(=O)(=O)Nc3nccc(C)n3)cc2)cc1	-5%	0	2.0	-23	0
COc1ccc(N2CCN(C(=O)CNC(=O)Cc3ccc(Cl)cc3)CC2)cc1	x	x	-1.5	x	4
Cc1ccc(S(=O)(=O)N2CCC(C(=O)Nc3ccccc3N3CCCCC3)CC2)cc1	0%	3	0.9	-20	7
CCC(C)(C)NC(=O)CC(c1ccc(OC)cc1)n1cccc1 (stereo not given)	-9%	-2	-1.1	-44	-6
COc1ccc(NC(=O)CCNC(=O)Cn2cnc3sc4c(c3c2=O)CCCC4)c(OC)c1	x	x	-6.2	x	0
CCCC/C=C/C(NC(=O)CCc1ccccc1)c1ccccc1 (stereo not given)	5%	-7	7.0	-8	-9
CCOC(=O)N1CCN(C(=O)CSc2nnc(-c3ccc(C(C)(C)C)cc3)o2)CC1	3%	1	1.5	-5	-1	Arbovirus inh repeat=10
Cc1c(Cl)cccc1N1C(=O)CC(NNC(=O)c2cccnc2)C1=O (stereo not given)	-4%	0	4.5	-22	-10

Three entries drawn at random from those above, as already listed:
SMILES	Mtb growth	Arbovirus inh	RecA intein inh	YopH inh	Mtb bLac sens	others
Nc1ccc(N=Nc2ccccc2)c2cccnc12	x	x	3.6	x	97
Cc1ccc(S(=O)(=O)Nc2ccccc2C(=O)Nc2ccc(S(=O)(=O)Nc3nccc(C)n3)cc2)cc1	-5%	0	2.0	-23	0
CCOC(=O)N1CCN(C(=O)CSc2nnc(-c3ccc(C(C)(C)C)cc3)o2)CC1	3%	1	1.5	-5	-1	Arbovirus inh repeat=10

Later entries.
SMILES	Mtb growth	Arbovirus inh	RecA intein inh	YopH inh	Mtb bLac sens	others
COC(=O)c1ccc(CSc2nc3sc(C(=O)O)c(C)c3c(=O)[nH]2)cc1	-3%	5	-3.9	x	-4
O=C(NC(=S)Nc1ccc2[nH]ncc2c1)c1ccccc1	1%	8	5.6	-18	-10
COc1ccc(-c2cc(=O)c3c(OC)c(OC)c(OC)cc3o2)cc1	-9%	-11	0.5	x	4
Cc1ccc(C(NC(=O)N2CCOCC2)C(Cl)Cl)cc1F (stereo not given)	4%	-10	-0.1	-25	5
COc1ccc(Cl)cc1NC(=O)NCCN1CCCCC1	1%	-4	-5.1	x	5
CCCCOC(=O)n1c(=O)oc2ccc(S(=O)(=O)N3CCCCC3)cc21	0%	x	9.2	x	1
COc1ccc(-c2noc(CCC(=O)N3CCN(c4cc(C)ccc4C)CC3)n2)cc1	2%	15	6.8	-22	1
ClC1(Cl)CC1CSc1ncn[nH]1 (stereo not given)	1%	7	-0.4	x	x
O=C(NC(=S)Nc1cccc(NC(=O)c2ccccc2)c1)c1cccc([N+](=O)[O-])c1	2%	-3	2.8	-27	-5
COc1ccc(N2CCN(c3ncnc4c3cnn4-c3ccc(C)cc3C)CC2)cc1	-1%	-7	0.4	-26	-2
O=C(NCc1ccccc1Cl)C(=O)NCC1CCCN1S(=O)(=O)c1cccs1 (stereo not given)	x	x	1.6	x	-1
c1ccc(-c2cc(-c3ccccc3)[nH]n2)cc1	x	x	4.3	x	-5
CCCc1cc(=O)[nH]c(SCC(=O)Nc2nc3ccc(OCC)cc3s2)n1	84%	11	-2.9	x	11
CNS(=O)(=O)c1cc(NC(=O)c2cnc(SC)n2-c2ccccc2)ccc1C	x	x	-4.0	x	1
C[n+]1ccn(CC(=O)c2cc(C(C)(C)C)c(O)c(C(C)(C)C)c2)c1	x	x	-1.4	x	1
O=C(NCCCN1CCCCC1)C1(S(=O)(=O)c2ccc(Cl)cc2)CC1	-2%	2	0.0	-4	-11	Arbovirus inh repeat=9
CCCn1c(N)c(N(CCOC)C(=O)/C=C/c2cccc(Cl)c2)c(=O)[nH]c1=O	6%	0	-1.9	x	0
Cc1cc(C)n(-c2ccc(C(=O)Nc3nnc(C)s3)cc2)n1	-10%	4	-0.2	-21	-13
CCCCCn1c(=N)c(S(=O)(=O)c2ccc(Br)cc2)cc2c(=O)n3cccc(C)c3nc21	x	x	0.6	x	1
Cn1c(-c2ccc3c(c2)OCO3)cc(=O)c2ccccc21	7%	3	-0.7	x	-2	Arbovirus inh repeat=2
Cc1cc(OCC(=O)NCc2ccccn2)c2c(C)c(C)c(=O)oc2c1	x	x	-0.5	x	2
COCCNC(=O)C1CC(=O)N(C2CCCCC2)C1 (stereo not given)	-8%	-2	1.6	-49	-14
CCn1ncc(C2=NOC(C(=O)Nc3cccc(O)c3)C2)c1C (stereo not given)	6%	1	-0.6	x	-4
Cc1ccc(NC(=O)CCC(=O)N/N=C/c2coc3ccccc3c2=O)cc1	-2%	x	-0.9	x	1
CCCC(CCC)C(=O)Nc1cccc(C(=O)O)c1	-7%	3	-3.9	-37	10
Cc1ccc(Cl)cc1NC(=O)CSc1nncn1-c1ccccn1	x	x	-0.8	x	-7
COc1ccc(C(CNC(=O)c2ccc(Cl)c(NC(=O)c3cccs3)c2)N2CCCC2)cc1 (stereo not given)	x	x	2.9	x	10
COc1ccccc1N(CC(=O)Nc1ccccc1C)S(C)(=O)=O	-3%	13	0.8	-33	-14	Arbovirus inh repeat=0
O=C(Nc1nnc(S(=O)(=O)N2CCCCCC2)s1)c1ccccc1	x	x	0.6	x	2
CCCC(=O)Nc1ccc(Nc2ccccc2)cc1	13%	-12	-0.9	-3	-1
CN1C(=O)c2ccccc2C(C(=O)O)C1c1cccc(F)c1 (stereo not given)	-3%	13	1.4	-9	-11
Fc1ccccc1N1CCN(CC2CC3C=CC2C3)CC1 (stereo not given)	1%	-10	-1.7	-7	20
CC(C)c1ccc(NC2CCCN(C(=O)c3ccc(Cn4cnnn4)cc3)C2)cc1 (stereo not given)	x	x	-1.6	x	0
CCN(CC)S(=O)(=O)c1ccc(OC)c(NC(=O)c2cccs2)c1	-8%	-12	8.6	x	-2
CCOC(=O)Cn1c2[n+](c3ccccc31)CC(O)CS2 (stereo not given)	-1%	4	-1.5	14	1
CCOC(=O)CSc1nc2cc(C(=O)NCc3ccco3)ccc2c(=O)n1-c1ccc(F)cc1	-4%	-12	-2.7	x	2
CC(C)CCNC(=O)C1c2ccccc2Oc2ccccc21	x	x	0.6	x	2
CCOC(=O)C1CCCN(Cc2ccc(OC)c(OCc3ccccc3)c2)C1 (stereo not given)	x	x	-1.6	x	0
Cc1ccccc1C(=O)NCC(=O)OC(C)C(=O)Nc1ccnn1C(C)C (stereo not given)	x	x	1.7	x	0
COC(=O)C1(Cc2ccc(O)cc2)OC(=O)C(O)=C1c1ccc(O)cc1 (stereo not given)	-9%	x	-6.1	x	-7
Cc1ccc(NC(=O)Cc2noc3ccccc23)c(C)c1	-1%	4	-1.3	-38	5
N#C/C(=C\c1ccncc1)c1nc2ccccc2c(=O)[nH]1	-3%	5	-3.0	x	-15
O=C(C/C=N\OCc1c(Cl)cccc1Cl)Oc1ccc(Cl)cc1Cl	-12%	12	45*	-16	-6
O=C(N/N=C/c1ccc(OCC(=O)N2CCCC2)cc1)C(=O)NC1CC1	x	x	-3.3	x	5
COc1ccc(-c2cc(=O)oc3c(C)c(OCC(=O)NCCCn4ccnc4)ccc23)cc1	x	x	2.6	x	-8
O=C(CCc1ccccc1)NNC(=O)c1ccccc1Br	0%	5	-3.2	-12	-4

Entries from the list above containing an aryl methoxy group (13):
SMILES	Mtb growth	Arbovirus inh	RecA intein inh	YopH inh	Mtb bLac sens	others
COc1ccccc1OCC(=O)N1CCN(C(=O)c2ccco2)CC1	x	x	-1.0	x	-9
COc1ccc(N2CCN(C(=O)CNC(=O)Cc3ccc(Cl)cc3)CC2)cc1	x	x	-1.5	x	4
CCC(C)(C)NC(=O)CC(c1ccc(OC)cc1)n1cccc1 (stereo not given)	-9%	-2	-1.1	-44	-6
COc1ccc(NC(=O)CCNC(=O)Cn2cnc3sc4c(c3c2=O)CCCC4)c(OC)c1	x	x	-6.2	x	0
COc1ccc(-c2cc(=O)c3c(OC)c(OC)c(OC)cc3o2)cc1	-9%	-11	0.5	x	4
COc1ccc(Cl)cc1NC(=O)NCCN1CCCCC1	1%	-4	-5.1	x	5
COc1ccc(-c2noc(CCC(=O)N3CCN(c4cc(C)ccc4C)CC3)n2)cc1	2%	15	6.8	-22	1
COc1ccc(N2CCN(c3ncnc4c3cnn4-c3ccc(C)cc3C)CC2)cc1	-1%	-7	0.4	-26	-2
COc1ccc(C(CNC(=O)c2ccc(Cl)c(NC(=O)c3cccs3)c2)N2CCCC2)cc1 (stereo not given)	x	x	2.9	x	10
COc1ccccc1N(CC(=O)Nc1ccccc1C)S(C)(=O)=O	-3%	13	0.8	-33	-14	Arbovirus inh repeat=0
CCN(CC)S(=O)(=O)c1ccc(OC)c(NC(=O)c2cccs2)c1	-8%	-12	8.6	x	-2
CCOC(=O)C1CCCN(Cc2ccc(OC)c(OCc3ccccc3)c2)C1 (stereo not given)	x	x	-1.6	x	0
COc1ccc(-c2cc(=O)oc3c(C)c(OCC(=O)NCCCn4ccnc4)ccc23)cc1	x	x	2.6	x	-8
